StopGo RLuc – FMDV 2A StopGo reporter, Renilla signal. actives 0.32% (n = 120,000). Potency, µM (highest dose often 57.5 µM), for inactives: top-dose signal change, negative = less light. HEK cells with a luciferase reporter of 2A StopGo recoding. AID 1745857; active means well fitted falling curve with a large enough effect; inconclusive means small, poorly fitted or top-dose-only effect; inactive means no such curve, though single readings can be large or run the other way; also: nearly all actives have a fitted effect of over 55% in size; overnight with compound
StopGo FLuc – FMDV 2A StopGo reporter, firefly signal. HEK cells with a luciferase reporter of 2A StopGo recoding. Potency, µM (top dose mostly 57.5 µM), without a hit: at the highest dose signal change, negative = less light. actives 0.23% (n = 120,000); active = well fitted falling curve with a large enough effect; inconclusive = small, poorly fitted or top-dose-only effect; inactive = no such curve, though single readings can be large or run the other way; also: nearly all actives have a fitted effect of over 60% in size; overnight with compound
* hit, by the source's call; ? = inconclusive; & = joins results of further samples; [ ] = dose if it differs, or a comment. % is scaled to controls: 0 for no effect and ±100 for the full control effect; potency is read from the fitted curve at half-maximal effect. A portion of the library; count on the stated rates, not on these rows.

The first 5 compounds, to show the layout:
SMILES	StopGo RLuc	StopGo FLuc
COc1cccc(-c2nc(SCC(=O)Nc3ccc4c(c3)OCCO4)c(-c3ccccc3)[nH]2)c1	135%[activator]	8%
Cn1c(=O)[nH]c(=O)c2c1nc(NCc1ccco1)n2CCCc1ccccc1	5%	1%
CC(=O)c1ccc(N2CCN(C(=O)Nc3ccc(C)cc3)CC2)cc1	2%	39%[activator]
O=C(OCCN1CCN(C2CN(Cc3cn(Cc4ccccc4C(F)(F)F)nn3)S(=O)(=O)C2)CC1)c1cc2ccccc2o1 (stereo not given)	6%	0%
Cn1c(=O)n(Cc2ccccc2)c(=O)c2c1nc(SCCO)n2Cc1ccccc1	12%	-5%

The listing, repeating the preview:
SMILES	StopGo RLuc	StopGo FLuc
COc1cccc(-c2nc(SCC(=O)Nc3ccc4c(c3)OCCO4)c(-c3ccccc3)[nH]2)c1	135%[activator]	8%
Cn1c(=O)[nH]c(=O)c2c1nc(NCc1ccco1)n2CCCc1ccccc1	5%	1%
CC(=O)c1ccc(N2CCN(C(=O)Nc3ccc(C)cc3)CC2)cc1	2%	39%[activator]
O=C(OCCN1CCN(C2CN(Cc3cn(Cc4ccccc4C(F)(F)F)nn3)S(=O)(=O)C2)CC1)c1cc2ccccc2o1 (stereo not given)	6%	0%
Cn1c(=O)n(Cc2ccccc2)c(=O)c2c1nc(SCCO)n2Cc1ccccc1	12%	-5%
CCc1cc(=O)oc2c(C)c(OCC(=O)NCc3cccnc3)ccc12	-4%	7%
Cc1cc(C(C)(C)C)cc(C)c1CS(=O)Cc1ccccc1F (stereo not given)	24%	-12%
O=C(Cc1c[nH]c2ccccc12)NCc1ccccc1OC(F)F	10%	118%[activator]
COc1ccc(-n2nc(-c3ccc(C)cc3)c3cnc4cc(F)c(F)cc4c32)cc1	-4%	-4%
CCC1=C(c2ccc(C)cc2)S(=O)(=O)N=C1N1CCC(C(=O)Nc2ccc(OC)c(OC)c2)CC1	28%	-12%
Cc1cc(Cl)ccc1OC(C)C(=O)N/N=C(\CCC(=O)O)c1ccccc1 (stereo not given)	13%	0%
O=C(N[C@@H](Cc1c[nH]c2ccccc12)C(=O)O)c1ccc(Cl)cc1F	-8%	-5%
Cc1ccc(S(=O)(=O)CC(=O)Nc2nc3c(C)cccc3s2)cc1	-10%	-14%
Cc1c(N(C)CS(=O)(=O)O)c(=O)n(-c2ccccc2)n1C	5%	-5%[11.5 µM]
C#CCNC(=O)NCc1ccc(C(=O)NC)cc1	1%	-10%
Cc1cccc2c(N)ccnc12	-10%	-14%
CCOc1cc(-c2nc(-c3ccc(-c4ccc(C)cc4)nc3OC)no2)cc(OCC)c1OCC	26%	-10%
COc1ccc(/C=C/C(=O)c2ccc3ccccc3c2OC(F)F)cc1	1%	0%
CSCCC(NS(=O)(=O)c1ccc2c(c1)oc(=O)n2C)C(=O)Nc1ccc(C)cc1Cl (stereo not given)	23%	15%
COc1ccc(CN(C(=O)CSc2nc3ccc(OC)cc3[nH]2)C2CC2)cc1	136%[activator]	61%[activator]
c1ccc2sc(CCCCc3nc4ccccc4s3)nc2c1	-3%	0%
CCCn1nc(C(=O)NCCc2cccs2)c2ccccc2c1=O	21%	0%
CCOC(=O)c1c(-c2ccc(Br)cc2)csc1NC(=O)c1ccc(C(C)(C)C)cc1	-9%	0%
CCCc1c(C)nc(Nc2nc(C)c3cc(OC)ccc3n2)[nH]c1=O	-6%	5%
COc1cc(C(=O)Nc2cc(C)ccc2OCc2cc(=O)n3c(C)csc3n2)cc(OC)c1OC	-4%	3%
Cc1cccc2c(=O)c(-c3ccccc3)c(NC(=O)c3ccco3)oc12	18%	33%[activator]
COc1cccc(CNC(=O)c2ccc(C(F)(F)F)cc2)c1	20%	20%
COc1ccc(-c2cc(C(F)(F)F)nc(SCCC(=O)Nc3cc(C)ccc3O)n2)cc1	145%[activator]	5%
CC(=O)c1c(C)[nH]c2ccccc12	-6%	6%
O=C(Cn1ncc2c3ccccc3n(Cc3ccccc3F)c2c1=O)N1CCCCC1	-10%	-1%
c1ccc(OCCNc2nc(-c3cccnc3)nc3ccccc23)cc1	-17%	?
Cc1ccccc1Cn1c(C)c(CNCCCc2ccccc2)c(C(=O)O)c1C	26%	-25%
COc1ccc(NC(=O)c2cc3c(=O)n(Cc4cccnc4)ccc3nc2C)cc1Cl	-3%	1%
Cc1cc(C)cc(NC(=O)c2cc3ccccc3oc2=O)c1	3%	92%[activator]
CCCn1nc(C(=O)Nc2nc(-c3ccc(OC)cc3)c(C)s2)c2ccccc2c1=O	3%	12%
CCN(CC)c1nn2c(=O)c(C(=O)NCCc3ccccc3C)cnc2s1	-15%	9%
Cc1ccc(-c2nc(CN(C)CC(=O)N(C)C)co2)c(C)c1	-6%	19%
O=C(COC(=O)C(Cc1ccccc1)N1C(=O)C2C3C=CC(C4CC34)C2C1=O)c1ccc(Oc2c(Cl)cccc2[N+](=O)[O-])cc1 (stereo not given)	0%	-3%
O=C(CSc1nc2ccccc2nc1Cc1ccccc1)N1CCc2ccccc21	-13%	-14%
Cc1ccc(/C=C/S(=O)(=O)NCC(=O)OCC(=O)c2c[nH]c3ccccc23)cc1	-7%	5%

In another format: entries from further up.
Compound,StopGo RLuc,StopGo FLuc
Cc1cccc2c(=O)c(-c3ccccc3)c(NC(=O)c3ccco3)oc12,18%,33%[activator]
CCCn1nc(C(=O)NCCc2cccs2)c2ccccc2c1=O,21%,0%
CCCc1c(C)nc(Nc2nc(C)c3cc(OC)ccc3n2)[nH]c1=O,-6%,5%

New compounds follow:
SMILES	StopGo RLuc	StopGo FLuc
Cc1cnc(=O)[nH]c1SCC(=O)Nc1nc2ccccc2s1	-15%	127%[activator]
O=C(NN=C1CCCCCC1)c1cc(-c2cccs2)nc2ccccc12	26%	0%
Cn1c(=O)oc2cc(S(=O)(=O)N3CCC(C(=O)N4CCN(c5ccccc5F)CC4)CC3)ccc21	-6%	?
COc1ccc(NC(=O)CCN2CCN(CCO)CC2)c(OC)c1	-10%	-12%
O=C(COC(=O)c1cccc(S(=O)(=O)N2CCCC2)c1)Nc1ccc(Cl)cn1	5%	27%
COc1ccc2c(c1)c(C(C(=O)O)N1CCC(C(=O)O)CC1)cn2CC(=O)O (stereo not given)	-5%	4%
Fc1ccccc1Cn1c(-c2ccccc2)nc2ccccc21	0%	14%
COc1cc(C2C3=C(CCCC3=O)Nc3c(C#N)cnn32)cc(OC)c1O (stereo not given)	-11%	-6%
COc1ccc(C(=O)/C=C/c2ccccc2OCC#N)c2ccccc12	25µM*	?
C=CCn1c(SCc2ccc(Cl)cc2)nc2c1c(=O)[nH]c(=O)n2C	-1%	-3%
COc1cccc(OC/C(=N\O)c2ccc(OCC(N)=O)cc2O)c1	13%	67%[activator]
O=C(NN1C(=O)NC2(CCCCC2)C1=O)c1nn(-c2ccccc2)c(=O)c2ccccc12	19%	5%
O=C(c1csc(-c2ccsc2)n1)N1CCCC1c1ccc2c(c1)OCCCO2 (stereo not given)	28%	36%[activator]
CC(C(=O)NCCN1CCN(C)CC1)C1CCN(C(=O)c2cc3ccccc3[nH]2)CC1 (stereo not given)	1%	4%
Cc1ccc(C2(c3ccc(O)cc3)CCCCC2)cc1	11%	6%
CC(C)c1ccc(C(=O)Cn2cnc3c2c(=O)n(C)c(=O)n3C)c(C(C)C)c1	10µM*	10µM*
Cc1ccccc1CNC(=O)c1cnc2sc(N3CCOCC3)nn2c1=O	-8%	-11%
Cc1cc2oc(=O)cc(CN3CCN(C/C=C/c4ccccc4)CC3)c2cc1O	1%&-23%	13%&-18%
COc1ccc(CN2CCN(C(=S)Nc3ccccc3)CC2CCO)cc1OC (stereo not given)	1%	9%
Cc1cc(C(=O)NC(C)CCc2ccccc2)cs1 (stereo not given)	14%	79%[activator]
COc1ccc(Oc2coc3cc(OCc4ccc(F)cc4)ccc3c2=O)cc1	-10%	-5%
CN(C/C=C/C#CC(C)(C)C)Cc1cccc2ccccc12	-13%	-18%[11.5 µM]
CC1CCC[C@@]2(CCc3cc4c5c(c(=O)oc4cc3O2)CCC5)C1 (stereo not given in full)	14%	7%
O=c1oc2cc(OCCN3CCN(CCO)CC3)ccc2cc1-c1ccccc1	-10%	145%[activator]
CN(CC(=O)Nc1c(Cl)cccc1Cl)C(=O)C1CCN(C(=O)c2ccc(Cl)cc2)CC1	0%	-3%
Cc1cccc(Cn2cccc(C(=O)Nc3nnc(C)s3)c2=O)c1	-13%	-1%
COc1cc(C(=O)NCc2coc(-c3cccs3)n2)cc(OC)c1C	4%	-4%
O=C(Cc1cccs1)Nc1cccc2c1CCCC2	0%	0%
Cc1ccc(N(CC(C)C)S(=O)(=O)c2nnc(NC(=O)c3ccco3)s2)cc1	41%[activator]	-12%
Cn1cc(C(=O)C(=O)N2CCCCC2)c2ccccc21	29%	19%
Cc1cc(C)c(OCC(=O)N2CCC(NC(=O)c3ccccc3)CC2)c(C)c1	-12%	-6%
Clc1cc(Cl)cc(NCc2nnc3n2CCCCC3)c1	10%	-6%
Cc1cc(NC(=O)CCc2ncc(-c3ccc(F)cc3F)o2)no1	0%	23%
Cc1ccc(NC(=O)CCc2nc3cccnc3n2-c2ccccc2)cc1	-1%	-8%
Cn1cc(S(=O)(=O)N2CCCC2)cc1C(=O)Nc1ccc(F)cc1F	74%[activator]	-7%
Cc1nn(-c2nc3c(c(=O)n(CC(=O)C(C)(C)C)c(=O)n3C)n2C(C)C)c(C)c1C	-7%	-7%
C=CCNC(=S)N/N=C/c1ccccc1C(F)(F)F	12%	33%[activator]
COc1ccc(Cl)cc1NC(=O)C1CCCN1C(=O)C12CC3CC(CC(C3)C1)C2 (stereo not given)	17%	-7%
COc1ccc(OC)c(NC(=O)CSC2=Nc3ccccc3C3=NC(CC(=O)NCCc4ccccc4)C(=O)N23)c1 (stereo not given)	58%[activator]	-8%
COc1c(Cl)cc(C(=O)N(Cc2ccc(C)o2)C2CCS(=O)(=O)C2)cc1Cl (stereo not given)	-3%&0%	-11%&-12%
COc1ccc(C)cc1Nc1nc2c(S(=O)(=O)c3cc(C)ccc3C)nnn2c2ccsc12	59%[activator]	-23%
CCc1ccc(NC(=O)c2ncoc2-c2cccc(C)c2)cc1	-5%	23%
Cc1ccc2oc(=O)cc(CN3CCN(c4ccccn4)CC3)c2c1	1%	1%
Cc1ccc(Nc2nc(N)nc(CSc3nnc(C4CC4)n3Cc3ccccc3)n2)cc1	7%	21%
CC1CCCC/C1=N\NC(=S)Nc1ccc(C(C)C)cc1 (stereo not given)	74%[activator]	62%[activator]
O=C(NCCN1CCCCC1)c1nc(-c2ccc3cc[nH]c3c2)no1	-8%	-13%
CC(=O)Nc1ccc(OCC(=O)c2ccccc2)cc1	18%	0%
Cc1ccc2c(=O)c(C(=O)c3ccc(F)cc3)cn(CC(=O)NCc3ccccc3Cl)c2n1	8%	6%
Cc1cccc(-n2c3nc(=O)n(C)c(=O)c-3cc3c(C)nn(-c4ccccc4)c32)c1C	8%	22%
Cc1cccc(Nc2nc(-c3cc4ccccc4oc3=O)cs2)c1	15%	167%[activator]
O=C(Cn1ccc2cc(S(=O)(=O)N3CCCCC3)ccc21)NCCc1ccc(Cl)cc1	83%[activator]	-19%
CCOc1ccc(-c2cn3c(n2)sc2cc(C(=O)NCCCN4CCCCCC4)ccc23)cc1	-7%	15%
COc1ccc(Cl)cc1NC(=O)Cn1cnc2sc(C)c(S(=O)(=O)N3CCN(c4ccccc4OC)CC3)c2c1=O	-10%	-14%
Cc1nc2ccccc2n1CCc1nc2c3ccccc3nc(SCc3cccc(F)c3)n2n1	-15%	-25%
CCN(Cc1cccc(F)c1)C(=O)c1cc(-c2ccncc2)nc2ccccc12	-12%	?
CN(C)c1ccc(C2CC(c3c(O)n(C4CCCCC4)c(=O)[nH]c3=O)=Nc3ccccc3S2)cc1 (stereo not given)	-2%	87%[activator]
O=C(CN1C(=O)COc2ccc(Cl)cc21)NCCN1CCN(c2ccccc2)CC1	-8%	-12%
Cc1nc(N2CCOCC2)ncc1-c1cc(=O)[nH]c(N2CCc3ccccc3C2)n1	7%	-6%
CC(CCc1ccccc1)NC(=O)Cn1ncc2c3ccccc3n(Cc3ccccc3)c2c1=O (stereo not given)	?	-3%
CCc1nc(Oc2cccc(F)c2)c2oc3ccccc3c2n1	-10%	16%
Next records follow:
SMILES	StopGo RLuc	StopGo FLuc
Fc1ccc(-c2nc(COc3ccccc3F)co2)cc1	3%	137%[activator]
COc1cc(C)cc2oc(=O)c(CC(=O)NCCc3ccc(S(N)(=O)=O)cc3)c(C)c12	13%	6%
CN(C)/C=C\C(=O)c1ccc(Br)cc1	15%	93%[activator]
Cc1cc(C)cc(-n2c(C)c(C)n3c4c(=O)[nH]c(=O)n(C)c4nc23)c1	0%	13%
CCCNC(=O)C(CC)n1nc(CC)n2c(cc3oc(C)cc32)c1=O (stereo not given)	84%[activator]	5%
FC(F)(F)c1cc(C2CC2)[nH]n1	5%	8%
Cn1c(=O)[nH]c(=O)c2c1nc(N(CCO)Cc1ccccc1)n2Cc1ccccc1Cl	-2%	8%
O=C(COc1ccc(Cl)c(Cl)c1)NC1CCS(=O)(=O)C1 (stereo not given)	-11%	-9%
COc1cccc(CCNCc2ccc(Br)cc2)c1	?	25%
Cc1cccc(C(=O)N2CCC(c3nc4ccccc4o3)CC2)c1	-23%	-28%
CCOc1ccc(-c2cc(C(=O)NCc3ccc(OCC)c(OC)c3)[nH]n2)cc1	-2%	0%
Cc1nnc(NC(=O)C2(c3ccc(F)cc3)CCC2)s1	5%	-3%

Full records as entered above. Order of values: StopGo RLuc	StopGo FLuc
Cc1cc(C)cc(-n2c(C)c(C)n3c4c(=O)[nH]c(=O)n(C)c4nc23)c1 is listed with 0%	13%
COc1cccc(CCNCc2ccc(Br)cc2)c1 is listed with ?	25%
COc1ccc(CN2CCN(C(=S)Nc3ccccc3)CC2CCO)cc1OC (stereo not given) is listed with 1%	9%
